Measles inh: inhibitors of measles virus growth in infected cells; infected Vero cells, GFP fluorescence, 64 h; stronger effect = lower value; z-score (test concentration not listed); 33,000 tested, 0.1% active;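 active = z-score under -3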;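 note: score is relative to mean and SD of the compound wells of a plate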
The depositor's hits bear a star.

Measles inh,SMILES
-0.43,CCCC(=O)N(c1ccc2oc(C)c(C(=O)OC)c2c1)S(=O)(=O)c1cc([N+](=O)[O-])ccc1C
5.5,Clc1ccc(C2=CC(c3cccs3)n3ncnc3N2)cc1 (stereo not drawn)
-0.5,O=C(Nc1ccc(F)cc1)C1CCN(S(=O)(=O)c2cccc3nonc23)CC1
-1.9,Cc1ccc(NC(=O)c2scc3c2CCCC3)cc1
-0.69,CCc1ccc(NS(=O)(=O)c2ccc3[nH]cc(C(=O)NCc4ccccc4OC)c(=O)c3c2)cc1
0.31,COc1ccc(-c2nc3ccccc3o2)cc1NC(=O)COc1cc(C)ccc1C(C)C
1.4,COc1ccc(Cl)cc1NC(=O)C1c2ccccc2Oc2ccccc21
-1,CCN(CC)c1ccc(C(=O)Nc2nc3ccc4nc(C)sc4c3s2)cc1
-0.14,Cc1c(C(=O)Nc2ccc3c(c2)OCO3)sc2ncnc(N3CCc4ccccc4C3)c12
-0.47,Cc1cc(C)nc(NC2=NCC(=O)N2c2ccccc2Cl)n1

The results go on:
Measles inh,SMILES
0.56,CCOc1ccccc1NC(=O)c1c(NC(=O)C(C)(C)C)sc2c1CCC2
-0.8,Cc1ccc(-c2cc(C(=O)NCc3cccnc3)c3ccccc3n2)cc1C
-0.19,O=C(Cn1c(=O)sc2ccccc21)N1CCc2ccccc2C1
0.24,O=c1nc2sc3ccccc3n2c(=O)n1-c1ccc(Cl)cc1
-0.14,CC1(C)CC(=O)C2=C(C1)OC1=C(C(=O)CC(C)(C)C1)C2c1cccc(OC(=O)c2ccccc2F)c1
0.51,CCOC(=O)C1CCC(CN(Cc2cccc(Br)c2)S(=O)(=O)c2ccc(F)c(C)c2)CC1 (stereo not drawn)
0.03,Cc1cc(C)c(S(=O)(=O)n2cnc3cc(C)c(C)cc32)c(C)c1
-0.15,CCCC(O)(c1ccc(Cl)cc1)C(CN1CCOCC1)c1ccccc1 (stereo not drawn)
1.2,Cc1c(C)n(C(=O)CSc2nc3ccccc3s2)c2ccccc12
-0.53,Cc1ccc2nc(C)cc(Nc3cccc(C(F)(F)F)c3)c2c1

An excerpt from above in order of their number in Measles inh, highest first.
Structure	Measles inh
O=c1nc2sc3ccccc3n2c(=O)n1-c1ccc(Cl)cc1	0.24
CC1(C)CC(=O)C2=C(C1)OC1=C(C(=O)CC(C)(C)C1)C2c1cccc(OC(=O)c2ccccc2F)c1	-0.14
CCCC(O)(c1ccc(Cl)cc1)C(CN1CCOCC1)c1ccccc1 (stereo not drawn)	-0.15
O=C(Cn1c(=O)sc2ccccc21)N1CCc2ccccc2C1	-0.19
Cc1ccc2nc(C)cc(Nc3cccc(C(F)(F)F)c3)c2c1	-0.53
Cc1ccc(-c2cc(C(=O)NCc3cccnc3)c3ccccc3n2)cc1C	-0.8

The listing picks up, starting 6 compounds before the break.
Measles inh,SMILES
-0.14,CC1(C)CC(=O)C2=C(C1)OC1=C(C(=O)CC(C)(C)C1)C2c1cccc(OC(=O)c2ccccc2F)c1
0.51,CCOC(=O)C1CCC(CN(Cc2cccc(Br)c2)S(=O)(=O)c2ccc(F)c(C)c2)CC1 (stereo not drawn)
0.03,Cc1cc(C)c(S(=O)(=O)n2cnc3cc(C)c(C)cc32)c(C)c1
-0.15,CCCC(O)(c1ccc(Cl)cc1)C(CN1CCOCC1)c1ccccc1 (stereo not drawn)
1.2,Cc1c(C)n(C(=O)CSc2nc3ccccc3s2)c2ccccc12
-0.53,Cc1ccc2nc(C)cc(Nc3cccc(C(F)(F)F)c3)c2c1
-1.3,O=C(CCC1N=C2c3ccccc3N=C(SCc3cc(F)cc4c3OCOC4)N2C1=O)NCc1ccco1 (stereo not drawn)
0.34,CCOc1ccccc1NC(=O)CCS(=O)(=O)c1ccc2c(c1)CCN2C(C)=O
-0.57,COc1ccc(NC(=O)CCS(=O)(=O)c2nc(-c3ccc4c(c3)OCO4)cc(C(F)(F)F)n2)cc1OC
-0.27,CCN(CC)S(=O)(=O)c1cccc(C(=O)Nc2ccc(C(=O)O)cc2)c1
-0.81,Clc1ccc(C2Nc3ccc(Cl)cc3C3C=CCC32)cc1 (stereo not drawn)
-0.85,C=CCOc1ccc(C2/C(=C(\O)c3ccc(Cl)cc3)C(=O)C(=O)N2c2nnc(C)s2)cc1 (stereo not drawn)
0.13,CCOc1ccc(C(=O)Cc2cc3cccc(OC)c3oc2=O)cc1
-0.58,CCC(=O)N1CCc2cc(S(=O)(=O)Nc3ccccc3CC)ccc21
0.14,Cc1ccccc1-n1nc2c(c1NC(=O)COc1ccccc1)CSC2
2.2,COCc1nnc(NS(=O)(=O)c2ccc(F)cc2)s1

Additional compounds.
Measles inh,SMILES
-1.6,O=C1CC(c2ccc(Cl)cc2)CC2=C1C(c1cccc(F)c1)Nc1ccccc1N2 (stereo not drawn)
-0.04,OCCCc1nc2n(n1)C(c1ccco1)C=C(c1ccc(Br)cc1)N2 (stereo not drawn)
0.77,Cc1ccc(N2CC(C(=O)Nc3cccc(C)n3)CC2=O)cc1 (stereo not drawn)
2.5,COc1ccc(C2=C(CN(C)C)C(c3ccccc3)c3ccccc3O2)cc1 (stereo not drawn)
-0.48,OC(Cc1ccccn1)(c1ccccc1)c1ccccc1
1.7,CCOc1ccc(C(=O)Nc2c(C)ccc3nsnc23)cc1Br
-1.3,CC1CCc2cc(F)ccc2N1C(=O)c1ccc(N2CC3CC(C2)c2cccc(=O)n2C3)c([N+](=O)[O-])c1 (stereo not drawn)
-0.16,C=CCn1c(SCC(=O)Nc2ccc(F)cc2)nnc1-c1cccnc1
1.5,CCOC(=O)c1c(NC(=O)CCc2ccccc2)sc2c1CCC(CC)C2 (stereo not drawn)
0.9,Cc1ccc(N2C(=O)C3C(C2=O)C2(C)c4ccccc4C3(C)c3ccccc32)cc1[N+](=O)[O-] (stereo not drawn)

Next part.
Measles inh,SMILES
0.31,Cc1onc(-c2ccccc2Cl)c1C(=O)Nc1ccc(N2C(=O)c3ccccc3C2=O)cc1
-0.32,Cn1c(=O)cc(SCC(=O)NCCC2=CCCCC2)c2ccccc21
-0.37,O=C(CNS(=O)(=O)c1cccs1)NCc1ccccc1
-0.4,CCN1CCN(c2ncnc3c2c(-c2ccccc2)cn3-c2ccc(Br)cc2)CC1
-0.53,CCCS(=O)(=O)c1c(S(=O)(=O)CCC)c2c(N)cccn2c1C(=O)c1ccc(Br)cc1
0.63,O=C(Cn1nc(C(F)(F)F)c2c1CCC2)Nc1ccc(-n2cccc2)c(Cl)c1
-0.2,CCOC(=O)C1C2C=CC3(CN(C(C)c4ccccc4)C(=O)C13)O2 (stereo not drawn)
-0.9,COC(=O)C1=C(C(=O)OC)SC(=C2C(=S)C(C)(C)N(C(=O)C(F)(F)F)c3ccc(OC)cc32)S1
-0.1,Cc1ccc(-c2cc(C(F)(F)F)n3ncc(C(=O)Nc4cccc(CCC#N)c4)c3n2)cc1
0.37,O=C(COc1ccccc1Cl)Nc1nc2ccccc2s1

Other structures.
Measles inh,SMILES
-0.65,Cc1nn(C(C)(C)C)c(OC(=O)c2ccccc2F)c1Sc1ccccc1
-1.8,O=C(Nc1ccc(O)c(-c2nc3ccccc3s2)c1)c1cc(=O)c2ccccc2o1
1.1,C(=Cc1nc2ccccc2[nH]1)c1ccccc1
-0.2,CCCCNS(=O)(=O)c1ccc2oc(C(=O)O)c(C)c2c1
-0.12,CC(=O)N1c2ccccc2C(=O)OC1c1ccc([N+](=O)[O-])cc1 (stereo not drawn)
1.2,O=C(CSc1nnc2scc(-c3ccc(Cl)cc3)n12)N1CCOCC1
0,O=C(CN1C(=O)CSc2ccc(S(=O)(=O)N3CCOCC3)cc21)NCc1cccs1
0.05,CC1(C)Cc2nc(NCCCO)c(C#N)cc2CO1
0.38,COc1ccccc1C1/C(=C(\O)c2ccc(Cl)cc2)C(=O)C(=O)N1c1ccccc1 (stereo not drawn)
-0.37,COc1ccccc1C(=O)Nc1cccc(-c2nc3ccccc3o2)c1C

Additional entries
Measles inh,SMILES
-0.22,COCC1=C(C(=O)OC)C(c2cccc([N+](=O)[O-])c2)n2ncnc2N1 (stereo not drawn)
1.7,COc1ccc(-c2csc(NC(=O)c3ccc(S(=O)(=O)N4CCc5ccccc54)cc3)n2)cc1C
0.17,COc1cc2c(=O)n(Cc3ccccc3Cl)c(=O)n(CC(=O)NCc3ccccc3)c2cc1OC
1.4,CCOc1ccc(-n2nc(C(=O)NCCCOC)c3ccccc3c2=O)cc1
0.75,N#Cc1c(N2C(=O)C3ON(c4ccccc4)C(c4ccccc4)C3C2=O)sc2c1CCCC2 (stereo not drawn)
-0.56,CCOC(=O)c1cc2c(n(-c3ccc(Cl)cc3)c1=O)CCCC2=O
-0.21,Cc1sc(-c2cc3ccccc3oc2=O)nc1-c1ccc(Br)cc1
0.42,COc1ccc(S(=O)(=O)N2CCc3ccccc32)cc1[N+](=O)[O-]
-1,CCn1c2ccccc2c2cc(NC(=O)CN3CCN(S(=O)(=O)c4ccc(Br)cc4)CC3)ccc21
0.36,N#Cc1c(NC(=O)C(=O)c2c[nH]c3ccccc23)sc2c1CCCC2

(continued)
Measles inh,SMILES
1.6,Cc1ccc(C)c(OCc2nnc(N)s2)c1
1.3,COc1ccc(C)cc1NC(=O)c1sc2nc(C)nc(N3CCCCC3)c2c1C
0.27,Cc1c(C(=O)NCCN2CCOCC2)sc2ncn(CC(=O)N3CC(C)CC(C)C3)c(=O)c12 (stereo not drawn)
-0.62,O=S(=O)(Nc1ccc(Br)cc1)c1ccc(Br)s1
-0.53,O=C(O)CN1C(=O)CN(c2ccc(Br)cc2)C1=O
-0.42,COc1ccc(CNC(=O)c2cnn3c(C(F)F)cc(C4CC4)nc23)cc1
-0.55,CCCC(=O)OCn1c(=O)oc2cc(Cl)ccc21
0.12,CCOc1ccccc1NC(=O)C1CCN(S(=O)(=O)c2ccc(OC)c(OC)c2)CC1
-1.3,N=c1oc2ccc(Cl)cc2cc1C(=O)Nc1cccc(C(F)(F)F)c1
-0.53,O=C(Nc1cc(C(F)(F)F)cc(C(F)(F)F)c1)c1ccc2c(c1)OCCO2

New compounds follow.
Measles inh,SMILES
0.47,CCOc1ccc(C2=CC(c3cc(OC)c(OC)c(OC)c3)n3ncnc3N2)cc1 (stereo not drawn)
-0.05,O=C1c2ccc(-c3nc4ccccc4o3)cc2C(=O)N1c1ccc([N+](=O)[O-])cc1
-0.17,Nc1c(C(=O)Nc2cccc(F)c2)sc2nc(-c3cccs3)ccc12
-0.14,COc1cc(OC)cc(C2=NC(C)(C)CO2)c1
1.6,COc1ccc([N+](=O)[O-])cc1NC(=O)CNC(=O)Cn1cnc2ccccc2c1=O
0.69,O=C(Nc1ccc(F)cc1)c1sc2ccccc2c1Cl
-0.16,CC1=CC(C)(C)N(C(=O)c2cccs2)c2ccc(OC(=O)c3cccs3)cc21
1.7,CCC(C)(C(=O)NC1CCCCC1)N(Cc1cccs1)C(C)=O (stereo not drawn)
0.29,CCN1C(=O)c2cccc3c(S(=O)(=O)N4CC(C)OC(C)C4)ccc1c23 (stereo not drawn)
-1.1,O=C(CN1c2cccc3cccc(c23)S1(=O)=O)Nc1ccc(OC(F)(F)Cl)cc1

Other structures.
Measles inh,SMILES
0.45,Cc1ccc2nc(-c3ccc(NC(=O)Nc4ccccc4)cc3)sc2c1
1.1,CN(C(=O)CSc1nc(-c2cccs2)cc(C(F)(F)F)n1)c1ccccc1
-0.17,COCCOC(=O)c1c(C)oc2ccc(NS(=O)(=O)c3ccccc3)cc12
0.44,O=C(O)CCc1ccc(-c2ccc(Cl)cc2)n1-c1ccc(O)cc1
2,CC(=O)Oc1ccc2c(c1)C(C)=CC(C)(C)N2
-0.55,COc1ccc(S(=O)(=O)N(CC(=O)Nc2cccc(C(F)(F)F)c2)Cc2ccccc2)cc1
0.04,Cc1cccc(-c2nc3cc(N=Cc4cc(Cl)cc([N+](=O)[O-])c4O)ccc3o2)c1
-0.26,COCc1cc(=O)[nH]c(/N=C(/N)Nc2ccccc2)n1
0.19,COC(=O)C1C(=O)C2=C(CC1C)NC(C)=C(C(=O)OCCOc1ccccc1)C2c1ccccc1F (stereo not drawn)
0.04,CCOc1cc2c(cc1OCC)C1C(C(=O)N3CCN(c4cccc(C(F)(F)F)c4)CC3)c3ccccc3C(=O)N1CC2 (stereo not drawn)

Following part
Measles inh,SMILES
-0.13,NC(=O)c1cc2c(ccc3ccccc32)oc1=Nc1cccc2ccccc12
-1.1,CC(=O)N1CCc2cc(S(=O)(=O)N3CCN(c4cc(C)ccc4C)CC3)ccc21
0,COc1ccc(Oc2coc3cc(OCC(=O)OC(C)C)ccc3c2=O)cc1
-0.01,COc1ccc(-n2nc3c(c2NC(=O)CCC2CCCCC2)CSC3)cc1
-0.16,O=C(NCCc1ccc(Cl)cc1)c1ccc2c(=O)[nH]c3c(C(=O)NCC4CCCO4)sc(=S)n3c2c1 (stereo not drawn)
0.47,Nc1c(C(=O)Nc2ccc(Br)cc2)sc2[nH]c(=O)c(C(=O)O)cc12
-0.49,CCCCC(NC(C)=O)c1nc2ccccc2n1Cc1ccccc1C (stereo not drawn)
-0.41,O=C(Cn1c(=O)sc2ccccc21)N1CCCC1
0.34,COc1ccc(NC(=O)c2ccc(S(=O)(=O)N3CCCCC3)cc2)c([N+](=O)[O-])c1
0.08,Cc1cc2ccccc2c(=O)n1CC(=O)N(C)Cc1ccccc1

Remaining list, next part.
Measles inh,SMILES
1.3,Cc1ccccc1OC(=O)c1cc2cc(Br)ccc2oc1=O
0.83,CCSc1nnc2c(n1)OC(c1ccc(N(CC)CC)cc1)Nc1ccccc1-2 (stereo not drawn)
-0.02,COc1cccc2sc(=NC(=O)c3ccc(S(=O)(=O)N4CCc5ccccc5C4)cc3)n(C)c12
-0.73,COc1ccccc1N=c1oc2ccccc2cc1C(=O)Nc1cccc(C(F)(F)F)c1
-0.88,O=C1C2CC=CCC2C(=O)N1c1ccc(Oc2ccc3ccccc3c2)cc1 (stereo not drawn)
0.42,CCOC(=O)CNC(=O)c1cc2cc3ccc(C)cc3nc2s1
1.5,O=[N+]([O-])c1cc(NC2CC(O)C(O)CO2)cc(Sc2ccccc2)c1 (stereo not drawn)
0.03,c1ccc(N2CCSC2c2cccs2)cc1 (stereo not drawn)
0.99,O=C(NCc1cccs1)c1ccc(CS(=O)c2ccccc2)o1 (stereo not drawn)

Screens from PubChem.

This is a subset. The share of hits here may be higher or lower than overall.
